# Assay outcomes (PubChem)
# STK33 kinase inh: inhibitors of purified STK33 kinase, primary screen, biochemical, ADP-Glo luminescence, homogeneous, cell-free; Serine/threonine-protein kinase 33 (Homo sapiens), Q9BYT3; MBP phosphorylation; inhibition, % at 10 µM; actives 0.073% (n = 320,000); AID 2661, 2010;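 active = inhibition at or above 25%, using the most active replicate where run in duplicate; inactive = inhibition below 25%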
# Target sequence (Q9BYT3 whole entry, looked up): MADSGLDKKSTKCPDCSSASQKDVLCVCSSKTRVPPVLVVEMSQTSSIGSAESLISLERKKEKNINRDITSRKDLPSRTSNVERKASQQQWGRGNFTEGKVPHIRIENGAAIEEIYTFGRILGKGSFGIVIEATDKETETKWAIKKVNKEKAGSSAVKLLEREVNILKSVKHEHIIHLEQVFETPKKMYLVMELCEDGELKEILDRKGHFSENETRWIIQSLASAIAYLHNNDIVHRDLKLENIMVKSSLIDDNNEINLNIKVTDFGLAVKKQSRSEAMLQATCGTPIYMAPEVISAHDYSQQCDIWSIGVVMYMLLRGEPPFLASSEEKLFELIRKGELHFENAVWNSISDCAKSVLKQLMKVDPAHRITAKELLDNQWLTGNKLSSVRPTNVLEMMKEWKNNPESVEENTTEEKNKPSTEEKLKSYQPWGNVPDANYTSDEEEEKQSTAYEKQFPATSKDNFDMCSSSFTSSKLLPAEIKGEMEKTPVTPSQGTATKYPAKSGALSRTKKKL
# The depositor's hits bear a star. An excerpt; most or all hits stand in other tables.
Molecule	STK33 kinase inh
S=C(NCc1cccs1)Nc1cccc(Cl)c1	-0.4
COc1ccccc1C(=O)Nc1nnc(SCC(=O)NC2CCCC2)s1	0.5
O=C(O)c1cc(-c2cccs2)nc2ccc(Br)cc12	-0.8
CCOc1ccccc1NC(=O)n1ncc2c(C)cccc21	2.3
COc1ccc(CCNC(=O)COc2cc(O)c3c(c2)OC(C)(C)CC3=O)cc1OC	-0.8
CCN(CCCCCN(C)C)Cc1cc2ccccc2o1	-0.5
CCn1c(CN2CCN(C(=O)c3ccco3)CC2)nc2c1c(=O)n(C)c(=O)n2C	-0.3
FC(F)(F)c1ccc2nnc(-c3c(Cl)cccc3Cl)n2c1	-1.0
CCN(CC)S(=O)(=O)c1ccc(C)c(NC(=O)CNCc2ccccc2OC)c1	-4.7
CCCNC(=O)c1onc(CSc2ccc(F)cc2)c1C(=O)NCCOC	-0.4
CC(=O)Oc1ccc(C(=O)Nc2cc(C)on2)cc1	-1.6
CCOc1ccc(S(=O)(=O)NN2Cc3ccccc3C2=N)cc1	-1.3
COc1ccc(OC)c(/C(O)=C/C(=O)C(=O)Nc2cc(C)ccc2OC)c1	-0.8
O=C(COC(=O)CNC(=O)C12CC3CC(CC(C3)C1)C2)Nc1ccccc1	-1.6
O=C(Nc1ccc(Cl)c(Cl)c1)c1cccnc1	-1.4
O=C1OCCC1Sc1nnc(-c2ccco2)n1-c1ccccc1 (configuration not stated)	-3.8
S=C1NCN(Cc2ccccc2)CN1C1CCCCC1	0.0
CCCN(CCC)c1nc(NC2CCN(C(=O)OCC)CC2)nc(OC)n1	1.9
COc1ccc(OC)c(C2NC(=O)NC(C)=C2C(=O)OCc2ccccc2)c1 (configuration not stated)	-1.4
COc1ccccc1NC1=NC(C)(C)N=C(N)N1	-2.1

# Among those listed so far, these have a thiophene ring, fused or not.
Molecule	STK33 kinase inh
S=C(NCc1cccs1)Nc1cccc(Cl)c1	-0.4
O=C(O)c1cc(-c2cccs2)nc2ccc(Br)cc12	-0.8

# The main list resumes, starting 5 compounds before the break.
Molecule	STK33 kinase inh
O=C1OCCC1Sc1nnc(-c2ccco2)n1-c1ccccc1 (configuration not stated)	-3.8
S=C1NCN(Cc2ccccc2)CN1C1CCCCC1	0.0
CCCN(CCC)c1nc(NC2CCN(C(=O)OCC)CC2)nc(OC)n1	1.9
COc1ccc(OC)c(C2NC(=O)NC(C)=C2C(=O)OCc2ccccc2)c1 (configuration not stated)	-1.4
COc1ccccc1NC1=NC(C)(C)N=C(N)N1	-2.1
COc1cc(/C=C(\C#N)C(=O)Nc2ccc(SC(F)F)cc2)cc(OC)c1OC	0.1
O=C(c1csc2c1CCCC2)N1CCN(c2ccc(F)cc2)CC1	-1.4
COC(=O)c1cccc(OCC(O)Cn2ccnc2)c1 (configuration not stated)	-1.1
Cc1cccc2sc(NC(=O)CSc3nc4ccccc4o3)nc12	-0.1
Cc1ccc(-c2nnc(-c3ccc(NC(=O)c4ccco4)cc3)o2)cc1	-1.1
c1cc(SSc2ccncc2)ccn1	0.8
CCCn1c2ccc(F)cc2c2nnc(NN)nc21	0.3
Cc1ccc(-c2c3c(=O)n(C)c(=O)n(C)c3cn2-n2cnnc2)cc1	1.9
COc1ccccc1NC(=O)CSc1nc2sc(C)c(C)c2c(=O)n1C	0.8
O=C1CC(NCc2ccco2)C(=O)N1CCc1ccccc1 (configuration not stated)	0.0

# Reformatted field by field: part of the list above.
Cc1ccc(-c2nnc(-c3ccc(NC(=O)c4ccco4)cc3)o2)cc1
- STK33 kinase inh = -1.1

CCOc1ccccc1NC(=O)n1ncc2c(C)cccc21
- STK33 kinase inh = 2.3

O=C1CC(NCc2ccco2)C(=O)N1CCc1ccccc1 (configuration not stated)
- STK33 kinase inh = 0.0

O=C(COC(=O)CNC(=O)C12CC3CC(CC(C3)C1)C2)Nc1ccccc1
- STK33 kinase inh = -1.6

# Other entries:
Molecule	STK33 kinase inh
Cc1ccc(C(=O)NC2CCSC2=O)cc1 (configuration not stated)	-1.4
Cc1nc(C)c(C(=O)N2CCCC(CCC(=O)NCc3ccc(F)c(F)c3)C2)s1 (configuration not stated)	-1.6
O=C(O)CC(O)C(=O)O (configuration not stated)	-1.1
Cc1ccc(CSc2nnc(-c3cnccn3)n2C)cc1	-2.0
COc1cc(NC(=O)c2cc3ccccc3o2)ccc1NC(=O)c1ccco1	-1.4
CC(C)(C)NC(=O)c1c(F)c(F)c(F)c(F)c1F	0.6
CCCSc1nnc(NC(=O)Cc2ccc(OC)c(OC)c2)s1	-1.3
CCOC(=O)CSc1nc2sc3c(c2c(=O)n1-c1ccccc1)CCN(C)C3	0.1
COc1ccc(C(=O)C2CCCN(Cc3sc(N4CCCC4)nc3Cl)C2)c(OC)c1 (configuration not stated)	-0.3
Cc1nnc(N)nc1C	-1.0
COc1ccc(C2/C=C\CN(S(=O)(=O)c3ccc4ccccc4c3)CC(=O)N2Cc2ccc(F)cc2)cc1 (configuration not stated)	-1.1
CC1(c2ccc3noc(-c4ccc(F)cc4)c3c2)OCCO1	-0.1
CN(C)S(=O)(=O)Oc1ccc(C(=O)Nc2cccc(Cl)c2)cc1	-0.3
Cc1ccc(Cl)cc1NC(=O)COC(=O)C1CCCCC1	-0.3
Cc1cc(/C=C2/NC(=O)N(Cc3ccccc3F)C2=O)c(C)n1C(C)C	-3.4
COc1cccc(CN(C)C(=O)c2cccc(OC3CCN(C4CCCC4)CC3)c2)c1	0.7
CCOc1cc(Br)ccc1S(=O)(=O)N1CC(C)OC(C)C1 (configuration not stated)	0.0
CC(C#N)Sc1nnc(Nc2ccccc2)s1 (configuration not stated)	-0.9
COC(=O)c1cc2c(=O)c3ccccc3oc2nc1/C=C/N(C)C	-0.6
CC1CC(C)CN(CCCNC(=O)c2nn(C)c3c2CS(=O)(=O)c2ccccc2-3)C1 (configuration not stated)	-0.1

# (next part)
SMILES	STK33 kinase inh
CCOC(=O)C(=CNc1cc(C)nn1-c1ccc(C)cc1)C(=O)OCC	-1.3
CC1CCCN(C(=O)CCNC(=O)Cn2cnc3ccccc3c2=O)C1 (configuration not stated)	-3.0
CCC(C)NC(=O)Cn1c(=O)n(CCCCC(=O)NCc2ccco2)c(=O)c2ccccc21 (configuration not stated)	1.1
Cc1ccccc1N=C1NC(=O)CC(c2ccccc2)S1 (configuration not stated)	1.5
COc1ccc(CC(=O)Nc2ccc3c(c2)CCC3)cc1OC	-2.5
CCOC(=O)Cc1csc(NC(=O)c2sc3nc4ccc(C)cc4cc3c2N)n1	-0.1
COc1ccc(Cn2c(=O)[nH]c3cc(C(=O)N4CCN(c5ccccc5)CC4)ccc3c2=O)cc1	-0.1
CC(C)(C)NC(=O)NC(=O)CSc1ncn[nH]1	1.5
COc1ccc2c(c1)c(C(C)=O)c(C)n2C	0.3
c1ccc(COc2ccc(OCCCn3cncn3)cc2)cc1	2.7
Cc1ccc(-c2csc(NNC(=O)c3ccccc3)n2)cc1	4.0
O=C(Nc1ncc(Cc2ccccc2)s1)C1CCCO1 (configuration not stated)	0.3
Cc1ccc(N(C(=O)CNC(=O)c2ccco2)C(C(=O)NC2CCCC2)c2ccncc2)c(C)c1 (configuration not stated)	0.2
Cc1noc(NS(=O)(=O)c2ccc(NC(=O)CSc3nc4ccccc4s3)cc2)c1C	1.1
O=C(CSc1nc(C2CC2)nc2ccccc12)Nc1ccccc1N1CCOCC1	-0.3
CCOC(=O)c1c(CC(C)C)csc1N	-0.4
COc1cccc(CN2CCNC(=O)C2CC(=O)NCCc2ccccn2)c1 (configuration not stated)	-1.4
CCn1c(SCC(=O)Nc2c(C#N)cnn2-c2ccccc2)nnc1-c1cccs1	-0.4
COc1cccc(C2=NOC(C(=O)Nc3ccc4c(c3)OCO4)C2)c1OC (configuration not stated)	-0.7
COc1ccc(-c2nnc3n2CCCCC3)cc1	0.0
CCCN(CC1CC1)S(=O)(=O)c1ccc(S(N)(=O)=O)cc1	-1.3
CCc1ccc(N2CC(C(=O)OCC(=O)Nc3cc(C)on3)CC2=O)cc1 (configuration not stated)	-0.1
CC(C)c1ccc(NC(=O)CNCC(c2ccccc2)N(C)C)cc1 (configuration not stated)	0.5
CCCN(Cc1cc2ccccc2[nH]c1=O)C(=O)c1cccc([N+](=O)[O-])c1	-0.5
CC1(C)CC(=NNC(=O)c2n[nH]c3c2CCC3)CC(C)(C)N1	-0.3
CCOC(=O)c1sc(C)c(C(N)=O)c1NC1=NCCCCC1	-0.7
Cc1ccc(C2/C(=C(/O)c3ccc(Cl)cc3)C(=O)C(=O)N2CC2CCCO2)o1 (configuration not stated)	-1.5
CCOC(=O)N1CCN(C(=O)COc2ccc(Cl)cc2)CC1	-1.6
Cc1cc(C)n(C(=O)CNC(=O)Cc2ccccc2)n1	-0.4
CCC(C)NC(=O)C1c2ccccc2C(=O)N1Cc1ccccc1 (configuration not stated)	0.0
COc1ccccc1CNC(=O)C(=O)c1cn(CC(=O)N2CCOCC2)c2ccccc12	-0.3
CCS(=O)(=O)c1ccc2oc(Nc3ccccc3Br)nc2c1	2.5
CC(C)Oc1ccc(C(=O)NCC(=O)O)cc1	2.1
Cc1ccc(C(=O)C2C(c3cccs3)NC(=O)NC2(O)C(F)(F)F)cc1 (configuration not stated)	-1.3
COC(=O)c1c(NC(=O)C2CC=CCC2C(=O)O)sc2c1CCCCC2 (configuration not stated)	-0.7
O=C(O)c1cccc(NCc2cccnc2)c1	-1.1
CCn1c2ccccc2c2cc(CN3CCN(S(=O)(=O)Cc4ccccc4)CC3)ccc21	-1.2
CN(C)S(=O)(=O)c1cc(NC(=O)CN2C(=O)NC3(CCCc4ccccc43)C2=O)ccc1Cl (configuration not stated)	-0.8
O=C(O)CCCCCN1C(=O)C(O)=C(C(=O)/C=C/c2ccccc2)C1c1ccc2c(c1)OCO2 (configuration not stated)	-3.0
Cc1ccc(C(=O)N/C(=C/c2cccnc2)C(=O)NCc2ccco2)cc1	-3.3
O=C(c1ccc2c(=O)n(Cc3ccccc3Cl)c(=S)[nH]c2c1)N1CCCC1	-1.8
CCOC(=O)C1=NN(c2ccc(OC)cc2)C(c2ccccc2)CC1=O (configuration not stated)	-1.0
c1ccc(C2C3=C(Nc4ncnn42)c2ccccc2CCC3)cc1 (configuration not stated)	-0.4
COC(=O)c1ccccc1NC(=O)CSCC(=O)Nc1ccc(F)cc1	-0.8
Cc1ccc(NC(=O)COC(=O)c2ccc([N+](=O)[O-])o2)cc1S(=O)(=O)N1CCCCC1	-0.5
Cc1ccc(-n2c(C)n[nH]c2=S)cc1	-0.2
O=C1C(=O)N(CCO)C(c2cccc(F)c2)/C1=C(\O)c1ccc(Cl)cc1 (configuration not stated)	-0.8
CCn1cc([N+](=O)[O-])nc1C	-2.3
Cc1cccc(C(=O)O/N=C(\N)c2ccccn2)c1	11.5
CNC(=O)c1cc2c(ccc3ccccc32)o1	3.5

# Carrying on:
SMILES	STK33 kinase inh
CC(C)Nc1ccc(-n2nc3ccccc3[n+]2[O-])cc1	0.1
O=C(O)c1ccc(N/N=C/c2cc3ccccc3nc2Cl)cc1	1.8
CN1CCN(C(=S)C(=O)NCc2ccccc2)CC1	0.7
COc1ccc(NC(=S)c2ccccc2)cc1	0.6
CCn1c(SCC(=O)Nc2nc3ccc(OC)cc3s2)nc2c1c(=O)n(C)c(=O)n2C	0.8
O=C(CSCC(=O)N1CCOCC1)Nc1ccccc1	-2.0
C=CCc1ccc(OCC(O)COc2ccc(CC=C)cc2OC)c(OC)c1	-3.0
Cc1ccc(OCCOCCn2cnc3ccccc3c2=O)cc1C	-1.5
CCN=C1SC(CC(=O)NCC)C(=O)N1CC (configuration not stated)	0.6
CN(CC(=O)NC1CCCC1)S(=O)(=O)c1cnc[nH]1	-1.9
CCN(CC)CCc1c(C)[nH]c(C(=O)OCc2ccccc2)c1C	1.0
COc1cc(OC)c(C(=O)OCC(=O)N2CC(=O)Nc3ccccc32)cc1OC	-2.1
S=c1nc[nH]c2c1[nH]c1ccccc12	0.1
COC(=O)CN1C(=O)C(O)=C(C(C)=O)C1c1ccc([N+](=O)[O-])cc1 (configuration not stated)	-0.9
CC(C)(C)c1cc(C(F)(F)F)n2ncc(-c3ccccc3)c2n1	-0.8
Cc1ccc(-c2noc(CCC(=O)Nc3cccc(C#N)c3)n2)cc1	0.4
COc1ccccc1CC(=O)Nc1sc2c(c1C(N)=O)CCCC2	1.4
COc1cccc(COC(=O)c2cc(=O)[nH]c3ccc(S(=O)(=O)N4CCOCC4)cc23)c1OC	-0.7
O=C1Nc2ccccc2N(O)N1c1ccc(S(=O)(=O)Nc2ccccn2)cc1	-1.7
Cc1ccc(Cl)cc1NS(=O)(=O)c1cc2[nH]c(=O)c(=O)[nH]c2cc1C	-0.2
O=C(NCCCCc1ccccc1)Nc1ccc(F)cc1F	-0.7
c1ccc(-c2noc(C3CCC3)n2)nc1	4.9
O=C(CSc1ccc2c(c1)OCCO2)Nc1ncccc1O	0.1
COc1ccc(NC(=O)CSc2nc(N)c(NC(=O)c3ccccc3F)c(=O)[nH]2)cc1	0.9
Cc1ccc(NC(=S)Nc2ccc(S(=O)(=O)Nc3ncccn3)cc2)c(C)c1	-1.4
CCc1c(C)sc(NC(=O)OC)c1C(=O)N1CCCCC1	0.9
N#C/C(=C\c1ccc(N2CCOCC2)o1)C(=O)NC1CCCCC1	0.8
COc1ccc(-n2c(Cc3ccccc3)nnc2SCC(=O)N2CCCc3ccccc32)cc1	-0.4
C/C(CC(=O)Nc1ccc(C)cc1C)=N\NC(=O)C(C)C	-0.1
Cc1cccc(NC(=O)CNC(=O)CN2C(=O)NC3(CCCc4ccccc43)C2=O)c1C (configuration not stated)	-0.1
O=C(CCCSc1nnc(SCCCC(=O)c2ccc(F)cc2)s1)c1ccc(F)cc1	1.6
O=C(COC(=O)C1C2CC3OC(=O)C1C3C2)Nc1ccc(Cl)cc1 (configuration not stated)	-0.8
